# Compound activity: PubChem, several laboratories
# Rce1 inhib = blocks yeast Ras-converting enzyme | yeast membranes, quenched prenylated peptide cleavage fluorescence | 290,000 tested, 0.27% active | AID 2563 | calls only;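 active means fall in fluorescence gain of 50% or more versus controls, with final raw signal at or below 3038400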;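 further: plate controls were neutral control wells for no effect and wells lacking membranes for full effect; tested at 10 µM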
# HIV Env fusion = HIV envelope-mediated fusion inhibition. inhibition, % at 12.3 µM. 360,000 tested, 1.1% active. HeLa-JRFL Env/CEM21 cell fusion, luciferase;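 active means mean replicate inhibition score of at least 50 and every replicate individually at or above 50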;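 further: 0% = plate neutral controls and 100% = maraviroc near 300 nM; one replicate is shown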
# PABP FP inh = PABP-poly(A) binding inhibition. P11940. PABP-poly(A) RNA binding, fluorescence polarization. inhibition, % at 35 µM. 290,000 tested, 1% active. AID 2014;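 active means 50% or more with normal probe brightness, or confirmed in later tests; about a fifth of its hits are not listed in these tables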;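 further: calls also rest on retests at 20 µM and on dose response follow-up; controls were probe without protein and protein plus probe with vehicle; some compounds called inactive have numbers as strong as hits; many hits fall short of the cut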
# Target sequence (P11940 whole entry, looked up): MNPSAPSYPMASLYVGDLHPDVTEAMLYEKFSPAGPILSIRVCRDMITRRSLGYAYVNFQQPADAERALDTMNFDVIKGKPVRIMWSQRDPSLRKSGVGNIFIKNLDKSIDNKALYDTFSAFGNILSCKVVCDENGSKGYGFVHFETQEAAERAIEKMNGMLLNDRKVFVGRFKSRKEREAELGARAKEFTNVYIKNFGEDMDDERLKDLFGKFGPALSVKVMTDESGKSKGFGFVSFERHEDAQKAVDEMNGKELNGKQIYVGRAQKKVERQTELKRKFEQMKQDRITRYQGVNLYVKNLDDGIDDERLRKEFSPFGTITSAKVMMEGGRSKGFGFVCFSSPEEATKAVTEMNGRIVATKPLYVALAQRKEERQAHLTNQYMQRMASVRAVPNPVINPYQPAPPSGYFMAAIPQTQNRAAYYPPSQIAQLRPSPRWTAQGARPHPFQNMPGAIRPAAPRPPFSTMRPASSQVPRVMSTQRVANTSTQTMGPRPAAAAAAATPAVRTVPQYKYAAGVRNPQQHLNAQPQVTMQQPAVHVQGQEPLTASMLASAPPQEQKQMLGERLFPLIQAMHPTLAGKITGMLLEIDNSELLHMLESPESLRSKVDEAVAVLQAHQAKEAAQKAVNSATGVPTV
# MT1-MMP act inh = blocks activation of human MT1-MMP | P50281 | HT1080 RFP-PRO-GFP cells, GFP/RFP ratio fluorescence, overnight; percent of plate control window, DMSO zero | GFP/RFP ratio change, % at 20 µM | 360,000 tested, 0.061% active | AID 651647;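 active means GFP/RFP ratio change of at least 30% with cell ATP level not reduced by more than half and red fluorescence within 50% of control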; further: strong numbers were not always called active
#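 Compound: 20 µM single dose, 1% DMSO / System: HT1080 RFP-PRO-GFP cells / Controls: DMSO and RFP-L50D-GFP cell wells / Read-out basis: GFP/RFP fluorescence ratio / Schedule: overnight compound exposure at 37 °C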
# Yeast UUG start = yeast start codon fidelity modulation; 350,000 tested, 0.13% active; S. cerevisiae UUG-firefly luciferase reporter, luminescence/redox ratio; activity score, % at 18.7 µM;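 active means replicate mean at a twofold rise or more, about +100% in these data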;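 further: firefly luciferase made from a UUG start codon reports start codon fidelity; reporter light over untreated wells divided by growth signal over untreated wells; some hits fall short of that in this replicate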
# eIF4H FP inh = inhibitors of RNA binding by human eIF4H; Q15056; eIF4H fluorescence polarization binding assay; inhibition, % at 35 µM; 290,000 tested, 0.94% active; AID 2012;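 active means 50% or more with normal probe brightness, or confirmed in later tests; about a fifth of its hits are not listed in these tables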;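 further: calls also rest on retests at 20 µM and on dose response follow-up; 0% = protein and probe with vehicle and 100% = probe without protein; strong numbers were not always called active; many hits fall short of the cut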
# CSC inhib = cancer stem cell inhibition; 300,000 tested, 1.1% active; cancer stem cell-like cells viability, luminescence; inhibition, % at 7.5 µM; AID 2717;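 active means mean at 75% or more and at least half the replicates too; tested in HMLE shEcad cells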;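 further: 0% = median of negative and 100% = median of positive control wells; the first replicate is given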
# MT1-MMP act inh RFP = second read-out of MT1-MMP act inh, no call of its own (marks repeat the call); RFP signal change, %; measured here: RFP expression control read;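 0 = vehicle wells; hits needed this value within 50% of zero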
# An asterisk follows results filed as active; i = inactive; . = not tested or not shown.
cpd	SMILES	Rce1 inhib	HIV Env fusion	PABP FP inh	MT1-MMP act inh
1	CCC1=C(Nc2ccccc2)COC1=O	.	7	.	-3
2	O=C(c1ccccc1)c1c[nH]c2ccccc12	i	-2	-7	1
3	COc1ccccc1NC(=O)COC(=O)c1c[nH]c(=O)[nH]c1=O	i	10	-7	3
4	COc1ccc(OC)c(CCNC(=O)Cn2nc(C)c3c(C)n(-c4ccccc4)nc3c2=O)c1	i	1	8	5
5	COc1ccccc1CN1CCC(CNS(=O)(=O)c2cc(-c3onc(C)c3C)ccc2OC)CC1	i	4	11	4
6	CCOc1ccc(NC(=O)CN2C(=O)NC3(CCCCCC3)C2=O)cc1	.	.	.	3
7	COc1cc(/C=C2/C(=N)N3C=CSC3=NC2=O)ccc1OCCCOc1c(C)cccc1C	i	.	-4	-3
8	CCOC(=O)c1sc(NC(=O)C2=COCCO2)c(C#N)c1C	i	-47	.	-1

cpd	MT1-MMP act inh RFP	Yeast UUG start	eIF4H FP inh	CSC inhib
1	3	-6	.	.
2	-6	-10	2	-3
3	6	.	-7	-11
4	-21	-11	6	15
5	-6	7	-6	17
6	1	3	.	-5
7	-5	-9	-10	-8
8	1	-15	.	9

# The list continues:
cpd	SMILES	Rce1 inhib	HIV Env fusion	PABP FP inh	MT1-MMP act inh
9	CCOC(=O)c1c(C)[nH]c(C)c1C(=O)COC(=O)c1nn(CC)c(=O)c2ccccc12	.	-17	.	2
10	Cc1ccc(C#N)c(SCc2cccc(Br)c2)n1	i	4	.	-5
11	COc1cc(/C=N/NC(=O)c2csc3c2CCCC3)ccc1OCCN1CCOCC1	i	-14	-1	7
12	O=C(C1=C[C@H](c2ccccc2)C[C@H](OCCCCO)O1)N1CCOCC1	i	-3	-7	0
13	Cc1cn([C@H]2C[C@H](O)[C@@H](/C=C/C(=O)NCCc3ccc(S(N)(=O)=O)cc3)O2)c(=O)[nH]c1=O	.	10	.	-1
14	CC12CCC(C(=O)NCc3ccco3)(OC1=O)C2(C)C (stereo unspecified)	.	.	4	-3
15	COc1ccc(CCN2C(=S)N(c3ccccc3)C(=O)C2CC(=O)O)cc1OC (stereo unspecified)	i	10	-1	0
16	O=S(=O)(c1cc(C(F)(F)F)ccc1Cl)N1CCCCCC1	i	.	-10	5

cpd	MT1-MMP act inh RFP	Yeast UUG start	eIF4H FP inh	CSC inhib
9	6	-3	.	.
10	-6	-10	.	5
11	2	-2	-7	-6
12	-3	-22	0	2
13	2	0	.	.
14	2	-19	-2	2
15	2	.	-5	-11
16	1	-4	-8	-11

# Next section.
cpd	SMILES	Rce1 inhib	HIV Env fusion	PABP FP inh	MT1-MMP act inh
17	CC(C)(C)C(=O)Nc1nc2c(s1)CN(Cc1ccccc1)CC2	i	-5	-2	2
18	CC(C)c1c(O)nc(SCC(=O)Nc2ccc3c(c2)CCC3)[nH]c1=O	i	.	-3	1
19	COc1ccc(NC(=O)C2Cc3ccccc3C(=O)O2)cc1 (stereo unspecified)	i	-9	8	2
20	O=C(Cc1ccccc1)NCC(=O)OCC(=O)c1ccc(F)cc1	i	9	-10	-3
21	CCn1c(SCC(=O)N2CCCCCC2)nc2ccccc2c1=O	i	-5	1	10
22	COc1cc(/C=C/C(=O)c2ccc3c(c2)OCCO3)cc(Br)c1OCC(=O)N(C)C	i	-6	1	-48
23	CC(C)Oc1ccccc1/C=N/NC(=O)c1ccccc1Cl	i	-11	-11	-2
24	CCc1c(C)c2ccc(OCC(=O)OC(C)C)c(C)c2oc1=O	i	18	-8	-5

cpd	MT1-MMP act inh RFP	Yeast UUG start	eIF4H FP inh	CSC inhib
17	2	.	13	.
18	-2	-7	2	-7
19	1	-7	-10	0
20	-3	10	-3	-8
21	-3	15	-17	2
22	-6	5	5	.
23	-4	.	-8	0
24	-16	3	-14	.

# (cont.)
cpd	SMILES	Rce1 inhib	HIV Env fusion	PABP FP inh	MT1-MMP act inh
25	O=C1C(=O)N(Cc2cccnc2)C(c2ccccn2)/C1=C(/O)c1ccccc1 (stereo unspecified)	i	-176	17	1
26	CN(CCCC(=O)O)c1ccc(N=Nc2ccc([N+](=O)[O-])cc2)cc1	i	-55	.	53*
27	COc1ccc(C(=O)On2c(-c3ccc(Br)cc3)nc3ccccc3c2=O)cc1	i	8	-17	6
28	Nc1ccc(SCc2cccnc2)cc1	i	-15	3	-1
29	CCCCC(=O)Nc1ccc(NC(=O)C2CC2)cn1	i	0	-10	2
30	CC(=O)Nc1ccc(NC(=S)NC(=O)C2CC2)cc1	.	-20	-4	-1
31	C=CC[n+]1c(C)csc1Nc1cccc(Br)c1	i	-6	-3	-2
32	Cc1ccc(NC(=O)Cn2cc(C(=O)C3CC3)c3ccccc32)c(C)c1	i	-54	17	-3
33	Cc1cc(N/N=C/c2ccccc2O)nc(N2CCOCC2)n1	i	11	-7	15

cpd	MT1-MMP act inh RFP	Yeast UUG start	eIF4H FP inh	CSC inhib
25	5	-14	10	.
26	-4.1*	.	.	17
27	4	24	9	40
28	-2	-29	10	13
29	4	-9	7	-19
30	2	-7	-2	-12
31	0	.	4	-14
32	0	-11	7	-1
33	-1	.	1	1

# Molecules from the list above containing a carbonyl joined to an NH by a bond outside any ring, in the order listed:
cpd	SMILES	Rce1 inhib	HIV Env fusion	PABP FP inh	MT1-MMP act inh
3	COc1ccccc1NC(=O)COC(=O)c1c[nH]c(=O)[nH]c1=O	i	10	-7	3
4	COc1ccc(OC)c(CCNC(=O)Cn2nc(C)c3c(C)n(-c4ccccc4)nc3c2=O)c1	i	1	8	5
6	CCOc1ccc(NC(=O)CN2C(=O)NC3(CCCCCC3)C2=O)cc1	.	.	.	3
8	CCOC(=O)c1sc(NC(=O)C2=COCCO2)c(C#N)c1C	i	-47	.	-1
11	COc1cc(/C=N/NC(=O)c2csc3c2CCCC3)ccc1OCCN1CCOCC1	i	-14	-1	7
13	Cc1cn([C@H]2C[C@H](O)[C@@H](/C=C/C(=O)NCCc3ccc(S(N)(=O)=O)cc3)O2)c(=O)[nH]c1=O	.	10	.	-1
14	CC12CCC(C(=O)NCc3ccco3)(OC1=O)C2(C)C (stereo unspecified)	.	.	4	-3
17	CC(C)(C)C(=O)Nc1nc2c(s1)CN(Cc1ccccc1)CC2	i	-5	-2	2
18	CC(C)c1c(O)nc(SCC(=O)Nc2ccc3c(c2)CCC3)[nH]c1=O	i	.	-3	1
19	COc1ccc(NC(=O)C2Cc3ccccc3C(=O)O2)cc1 (stereo unspecified)	i	-9	8	2

cpd	MT1-MMP act inh RFP	Yeast UUG start	eIF4H FP inh	CSC inhib
3	6	.	-7	-11
4	-21	-11	6	15
6	1	3	.	-5
8	1	-15	.	9
11	2	-2	-7	-6
13	2	0	.	.
14	2	-19	-2	2
17	2	.	13	.
18	-2	-7	2	-7
19	1	-7	-10	0

cpd	SMILES	Rce1 inhib	HIV Env fusion	PABP FP inh	MT1-MMP act inh
20	O=C(Cc1ccccc1)NCC(=O)OCC(=O)c1ccc(F)cc1	i	9	-10	-3
23	CC(C)Oc1ccccc1/C=N/NC(=O)c1ccccc1Cl	i	-11	-11	-2
29	CCCCC(=O)Nc1ccc(NC(=O)C2CC2)cn1	i	0	-10	2
30	CC(=O)Nc1ccc(NC(=S)NC(=O)C2CC2)cc1	.	-20	-4	-1
32	Cc1ccc(NC(=O)Cn2cc(C(=O)C3CC3)c3ccccc32)c(C)c1	i	-54	17	-3

cpd	MT1-MMP act inh RFP	Yeast UUG start	eIF4H FP inh	CSC inhib
20	-3	10	-3	-8
23	-4	.	-8	0
29	4	-9	7	-19
30	2	-7	-2	-12
32	0	-11	7	-1

# This is a subset (hit frequency here may not be typical).
